# CtBP-E1A inh – CtBP/E1A binding inhibition; activity change, % (test concentration not listed); AlphaScreen GST-E1A/His-CtBP binding, 1536-well; active compounds read low; control for the full effect not named in the record; AID 651724; 0.49% of 340,000 active; in the data active means activity change below about -65%; inconclusive means about -30% to -65%; inactive means above about -30%; note: % is set by controls: 0 for no effect and ±100 for the full control effect
#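 GST-E1A and His-tagged CtBP (125 nM each as 5X stock) were preincubated with pin-transferred compound for 2 h at 37 °C in the dark, then glutathione donor and nickel acceptor beads were added for 1 h before AlphaScreen reading.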
# D2 ag – human D2 receptor agonism in beta-arrestin assay | P14416 | DiscoveRx PathHunter D2 beta-arrestin, luminescence, 90 min; 100% = 57 uM dopamine signal | activation, % (concentration not given with the values) | 0.084% of 360,000 active; in the data active = activation above about 40%; inconclusive = about 15% to 40%; inactive = below about 15%; note: compound concentration not given in the record; the text of the record calls up to 30% inactive
#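 Agonist mode: compounds alone added to overnight-plated D2 PathHunter cells for 90 min at 37 C, with 57 uM final dopamine (EC100) defining full response. Beta-arrestin recruitment detected by chemiluminescent reagent, read after 1 h at ambient temperature.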
# TRPML1 agonist – human mucolipin-1 channel agonism. 0.12% of 410,000 active. activation, % (no concentration beside the values). Q9GZU1. TRPML1-expressing cells, Ca2+ dye fluorescence, FDSS; host cell line not named in the record; reference of the full effect not given here. AID 624414; in the data active = activation above about 50%; inconclusive = about 30% to 50%; inactive = below about 30%; note: 0% is about no effect; the text of the record puts the active cut at 80%
#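 Calcium fluorescence on an FDSS kinetic reader gave the read-out. Tet-induced TRPML1-DL cells were plated overnight, dye-loaded (Ca8 with quencher, 45-90 min, room temperature, dark), then read 110 s after compound addition, and again 110 s after 4uM final 54-4 (EC80).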
# TRPML1 inh – blocks the human TRPML1 channel; Q9GZU1; TRPML1-inducible cells, Ca2+ dye fluorescence, FDSS; active compounds read low; inhibition of EC80 agonist-evoked calcium signal; activity change, negative = inhibition, % (test concentration not listed); 0.02% of 390,000 active; in the data active means activity change below about -50%; inconclusive means about -30% to -50%; inactive means above about -30%;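 note: stimulus is agonist 54-4 at its EC80 concentration; % is set by controls: 0 for no effect and ±100 for the full control effect; compound concentration not given in the record; the text of the record puts the active cut at -80%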
#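 Tet-induced TRPML1-DL cells loaded with Ca8 no-wash calcium dye were read kinetically on FDSS. Compound addition was followed by EC80 agonist 54-4 (4 uM final); inhibition was read over 110 s.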
# Six1-Eya2 blk – inhibitors of human Six1/Eya2 interaction | 0.56% of 360,000 active | activity change, % (test concentration not listed) | Q15475+O00167 | AlphaScreen GST-Six1/His-Eya2 binding, biochemical; active compounds read low; control for the full effect not named in the record | AID 651725; in the data active = activity change below about -65%; inconclusive = about -30% to -65%; inactive = above about -30%; note: % is set by controls: 0 for no effect and ±100 for the full control effect
# Target sequence (O00167 whole entry, looked up): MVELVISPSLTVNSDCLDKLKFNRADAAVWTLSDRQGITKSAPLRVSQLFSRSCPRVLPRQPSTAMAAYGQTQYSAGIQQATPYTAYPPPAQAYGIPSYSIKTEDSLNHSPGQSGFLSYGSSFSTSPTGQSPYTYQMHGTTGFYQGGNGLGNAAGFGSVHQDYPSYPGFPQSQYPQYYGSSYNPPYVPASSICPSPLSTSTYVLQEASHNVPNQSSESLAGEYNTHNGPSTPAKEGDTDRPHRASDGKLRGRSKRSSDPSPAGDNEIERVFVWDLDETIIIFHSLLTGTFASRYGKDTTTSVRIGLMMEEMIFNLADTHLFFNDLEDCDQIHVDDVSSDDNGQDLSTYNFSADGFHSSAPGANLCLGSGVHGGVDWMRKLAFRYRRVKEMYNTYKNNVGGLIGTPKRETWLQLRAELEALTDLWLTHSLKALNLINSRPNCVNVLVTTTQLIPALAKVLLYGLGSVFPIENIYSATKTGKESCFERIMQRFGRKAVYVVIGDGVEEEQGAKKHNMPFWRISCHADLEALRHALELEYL
# Target sequence (Q15475 whole entry, looked up): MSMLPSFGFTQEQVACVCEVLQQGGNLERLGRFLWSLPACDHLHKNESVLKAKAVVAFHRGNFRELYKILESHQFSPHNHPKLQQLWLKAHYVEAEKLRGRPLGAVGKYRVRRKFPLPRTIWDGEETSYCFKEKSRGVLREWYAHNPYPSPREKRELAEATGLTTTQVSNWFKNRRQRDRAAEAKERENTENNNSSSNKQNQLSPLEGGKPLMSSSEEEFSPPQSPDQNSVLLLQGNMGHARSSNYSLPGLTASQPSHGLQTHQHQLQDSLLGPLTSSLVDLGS
#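 Compounds are tested against tagged Six1 and Eya2 proteins bridged by glutathione donor and nickel acceptor beads; after a one-hour incubation at 37 °C without light, AlphaScreen emission is recorded.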
# PINK1 modulator – PINK1 expression modulation; PINK1 immunofluorescence, high-content cytometry, 24 h; Potency, µM (doses to about 76.6 µM), for the others: at the top dose activation (PINK1 increase), most hits filed as activators; 0.2% of 410,000 active; AID 624263; active = well fitted activation curve with a large enough effect; inconclusive = small, poorly fitted or top-dose-only effect; inactive = flat fitted curve, though single readings scatter; cell line not stated here;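 note: potency is the fitted concentration of half-maximal effect; % of control where 0% means no effect; nearly all actives have a fitted effect of over 65% in size; a mitochondrial uncoupler was the plate control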
#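 Measures PINK1 amount and localization on or inside mitochondria by immunofluorescence. Stable cells get compounds at 5 concentrations for 24 hours before fixation and staining; CCCP controls included.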
# An asterisk follows results filed as active; ? = inconclusive; . = no result given; & = joins results of further samples; [ ] = remark or other dose.
SMILES,CtBP-E1A inh,D2 ag,TRPML1 agonist,TRPML1 inh,Six1-Eya2 blk,PINK1 modulator
CC(=O)N1CCc2cc(S(=O)(=O)N3CCN(c4ccc(C)cc4)C(C)C3)ccc21 (stereo unspecified),.,.,-1.4,5.9,.,1.6%
CC(=O)Nc1c(C(=O)N2CCCCCC2)cnn1-c1ccccc1,-1.5,-3.3,-0.6,1.0,5.4,-0.6%
CN1CCN(c2nc(NCc3ccco3)nc(N)c2[N+](=O)[O-])CC1,0.5,-0.2,0.5,20.6,9.6,-0.4%
CCOC(=O)C(=O)Cc1nc2ccccc2s1,-1.2,-4.7,1.4,-2.4,2.0,-0.6%
CC(=O)c1ccc(Nc2nc(N3CCOCC3)nc(N3CCOCC3)n2)cc1,5.4,4.2,-0.6,6.2,-2.1,0.2%
O=C(Cc1ccccc1)Nc1sc2c(c1C(=O)Nc1ccccc1)CCCCC2,.,.,3.0,-7.5,.,3.6%
Cc1cccc(/C=C/c2nc3ccccc3c(=O)[nH]2)c1,7.0,-0.8,1.3,16.6,-4.0,-1.0%
CCOC(=O)c1sc2ncnc(NCC(c3cccs3)N(C)C)c2c1C (stereo unspecified),-9.1,0.2,-0.1,-3.9,-2.3,-7.6%[38.3 µM]
CC(=O)Nc1nc(C)c(Oc2ccc(Cl)cc2)c(=O)[nH]1,-1.2,1.3,0.1,-3.1,1.3,2.5%
CCOC(=O)C1CCN(S(=O)(=O)c2ccc3c(c2)N(C)C(=O)CC(=O)N3C)CC1,8.6,-4.3,-0.5&0.8,-1.9&-20.5,3.5,-1.1%&-0.9%
Cc1ccc(C(=S)N2CCN(Cc3ccccc3)CC2)s1,-29.2,3.9,-0.2,3.1,-20.2,0.4%
CC(C)[C@H](NC(=O)c1ccc(C(C)(C)C)cc1)C(=O)Nc1nnc(C2CC2)s1,10.6,-3.1,1.3,12.3,-6.1,8.8%
O=C(CSc1nc(=O)[nH]c2c1CCCC2)Nc1ccc(F)cc1F,-19.1,0.5,1.2,3.5,4.0,6.8%
O=C(NCc1nnc(SCC(=O)N2CCCC2)o1)c1cccc(C(F)(F)F)c1,2.2,1.3,-0.2,5.7,4.3,-1.5%
CCC(C)N(C(=O)CSc1ncnc2c1cnn2-c1ccccc1)C1CCS(=O)(=O)C1 (stereo unspecified),4.5,1.7,0.7,-4.1,-0.1,-4.0%
COC(=O)Nc1ccc(S(=O)(=O)Nc2ncccn2)cc1,.,-1.0,0.7,-8.8,6.7,0.9%
CC1CC(C)CN(S(=O)(=O)c2ccc(NC(=O)CCN3C(=O)C4CC=CCC4C3=O)cc2)C1 (stereo unspecified),.,-2.2,-0.2,2.9,-3.2,-1.0%
CCc1ccc(N(CC(=O)NC2CC2)S(=O)(=O)c2ccc(C)cc2)cc1,0.0,-3.3,0.5,-15.2,8.4,1.0%
O=C(O)CCNC1C=CS(=O)(=O)C1 (stereo unspecified),11.4,-3.0,-0.2,4.8,0.2,0.4%
O=c1[nH]c2ccccc2[n+]([O-])c1-c1ccccc1,-3.0,-17.9,0.5,-3.1,0.1,-0.6%
Cc1ccc(C(=O)Nc2c(C)nc3ccccn3c2=O)cc1,.,.,-0.3,-11.4,.,0.5%
COc1cc2cnc(-c3ccccc3)c(-c3ccc(C#N)cc3)c2cc1OC,-4.1,-0.5,1.2,-3.5,-6.4,-0.9%
O=C(O)CCN1C(=O)S/C(=C\c2cccnc2)C1=O,1.0,-1.6,0.4,-19.6,14.6,-0.5%
CCc1ccc(Nc2nc(N3CCOCC3)nc(N3CCOCC3)n2)cc1,1.2,2.7,2.0,10.3,4.6,-1.3%
O=C1C2=C(C(c3ccccc3)=NCCN2)C(c2cccc([N+](=O)[O-])c2)N1c1ccccc1 (stereo unspecified),-0.9,-2.7,0.6,6.5,5.8,-0.7%
NNC(=O)c1[nH]c2ccc([N+](=O)[O-])cc2c1-c1ccccc1,.,8.1,0.1,2.9,-8.0,4.6%
Cc1noc(C)c1COC(=O)c1cc(S(=O)(=O)N2CCOCC2)ccc1F,.,1.8,-0.3,-6.4,2.6,-0.6%
CCn1c(C)cc(O)cc1=O,4.9,-1.5,-0.7,19.9,2.1,-1.5%
COc1ccc(NC(=O)Cn2c(=O)oc3cc(S(=O)(=O)N4CCCC4)ccc32)c(OC)c1,3.6,-8.4,-0.5,3.0,6.2,0.7%
Cc1ccc(S(=O)(=O)N2CCOC2CNC(=O)C(=O)NCc2cccnc2)cc1 (stereo unspecified),4.0,0.0,-0.6,-9.7,5.9,1.4%
COc1ccccc1NC(=O)NC1(C(=O)NCC2CCCO2)CCCCC1 (stereo unspecified),2.5,7.8,-0.2,-1.3,2.3,2.4%
CCOC(=O)c1ccc(NC(=O)[C@@H](NC(N)=O)C(C)C)cc1,4.9,-0.7,-0.7,10.7,13.8,2.7%
CCCN(C)C1CN(Cc2cn(Cc3ccc(C(F)(F)F)cc3)nn2)S(=O)(=O)C1 (stereo unspecified),6.4,.,0.7,.,8.7,-0.6%
C[C@H]1COC(=O)[C@H](CC(=O)OC(C)(C)C)C/C=C\C[C@@H](CC(=O)NCCO)C(=O)N1,-2.4,0.1,-0.6,6.6,6.1,-1.1%
COC(=O)c1cc(OC)c(OC)cc1NC(=O)c1cc(-c2ccccc2)nc2ccccc12,2.2,0.7,-0.5,13.9,-0.8,?
Cc1ccc2cc(NC(=O)c3ccccc3C)ccc2n1,-0.7,2.4,0.0,3.4,-1.0,0.0%
COc1cccc(OCc2cc(C(=O)N3CCNC(=O)C3Cc3ccccc3)no2)c1 (stereo unspecified),-3.0,-2.7,0.3,11.5,1.0,-0.5%
O=C(N/N=C/c1ccncc1)c1ccccc1OCc1ccc(Br)cc1,1.8,1.7,3.6,0.8,-10.4,3.4%
O=C(c1ccc2ccccc2c1)N1CCN(c2ccccc2)CC1,-6.4,-1.2,-0.3,8.4,-9.4,1.2%[38.3 µM]
COCc1ccc(C(=O)N2CCCC(Nc3ccc(F)c(F)c3)C2)s1 (stereo unspecified),0.2,-1.9,-0.3,1.4,14.1,1.5%
CCOC(=O)C1=C(CN2CCN(c3ccc(OC)cc3)CC2)NC(=O)NC1c1ccc(OC)cc1 (stereo unspecified),.,.,3.7,-0.9,.,8.7%
O=C(N/C(=C/c1ccco1)C(=O)N1CCCCCC1)c1ccccc1,-16.5,-0.5,0.3,8.1,-3.3,2.0%
COc1ccc(Cn2cc(CN3CC(N4CCN(C)CC4)CS3(=O)=O)nn2)cc1 (stereo unspecified),0.4,.,-0.1,.,10.8,-0.3%
Cc1ccc2nc(COc3cccc(NC(=O)COc4ccccc4F)c3)cc(=O)n2c1,.,.,-0.2,-27.5,.,1.3%
Cc1cccc(NC(=O)c2ccc(C3SCC(=O)N3CCc3ccccc3)cc2)c1 (stereo unspecified),-11.5,2.7,2.0,25.9,-1.1,0.0%
CSc1ccc(C2c3c(oc4cc(C)cc(C)c4c3=O)C(=O)N2CCO)cc1 (stereo unspecified),.,.,2.0,-23.3,.,5.9%
Cc1cc(N2CCOCC2)nc(NCc2ccccc2)n1,7.7,-3.7,79.9*,-6.7,-1.8,.
O=C(NCc1ccc(F)cc1)c1cc(C2CCCN(C(=O)c3ccc4ccccc4c3)C2)on1 (stereo unspecified),-4.6,-2.9,-0.4,.,-6.4,1.3%
O=S(=O)(c1ccc(N2CCN(Cc3ccccc3)CC2)nc1)N1CCCC1,7.6,-0.2,-0.7,1.9,-0.6,-0.9%
Cc1cccc(-c2nnc(SCC(=O)c3ccc(O)cc3O)n2C)c1,-8.0,-2.5,-0.6,-15.3,0.9,1.7%
O=C(CCn1c(=O)[nH]c2ccccc2c1=O)NCCSCc1ccccc1,0.3,-3.9,-1.3,2.5,-6.0,1.4%
O=C(O)CCSc1ccc([N+](=O)[O-])cc1[N+](=O)[O-],-7.9,13.7,-0.2,-18.8,-11.2,-0.3%
Cc1ccccc1C(=O)N/C(=C/c1ccc(-c2cccnc2Cl)o1)C(=O)NCCCN1CCN(C)CC1,23.2,-2.7,1.3,4.6,17.7,-4.0%
O=C(NNS(=O)(=O)c1ccccc1)c1ccncc1,13.1,1.3,1.7,2.7,1.5,-0.1%
COc1ccc(/C=C2\SC(=O)N(CC(=O)NNC(=O)c3ccccc3O)C2=O)cc1OC,-14.9,-4.0,0.0,-2.1,-11.4,1.3%
COc1ccc2[nH]cc(CCNS(=O)(=O)c3ccc(NC(C)=O)cc3)c2c1,-18.0,-1.0,1.5,-12.7,-7.0,2.5%
N/C(=N\OC(=O)Cc1ccc([N+](=O)[O-])cc1)c1cccc(Br)c1,6.9,7.6,2.1,-27.7,-6.6,2.1%
CCOc1cccc2sc(N(CCN(C)C)C(=O)c3ccc4c(c3)OCCO4)nc12,16.5,-2.4,0.2,33.9,-16.1,-0.8%
Cn1c(-c2ccccc2Br)n[nH]c1=S,-0.9,-1.4,1.3,24.4,-0.1,2.9%
CSCCC(NC(=O)COc1ccccc1)C(=O)OCC(=O)c1cc2ccccc2o1 (stereo unspecified),-3.3,-12.2,0.9,-1.5,3.9,-0.2%
# The results go on.
SMILES,CtBP-E1A inh,D2 ag,TRPML1 agonist,TRPML1 inh,Six1-Eya2 blk,PINK1 modulator
CC1(C)CC(=O)C=C(Nc2ccc(F)cc2F)C1,0.0,0.6,0.2,-1.7,0.0,-0.4%
Cc1[nH]c2ccccc2c1SCCNC(=O)c1ccc(Br)o1,0.2,0.7,0.2,7.6,-18.1,.
CCCOc1cccc(C2c3c(oc4ccc(F)cc4c3=O)C(=O)N2CCc2ccc(OC)cc2)c1 (stereo unspecified),.,.,0.4,-1.0,.,1.5%
Cc1ccc(-c2cc3nc(NCCc4ccncc4)n(C)c(=O)c3s2)cc1,-1.1,-5.0,0.1,.,-6.0,0.3%
CCNc1sc(C(=O)c2cccs2)c(N)c1C#N,-22.2,-0.6,0.1,11.6,-10.4,-2.1%
CN1CCC(=O)N(CCSc2ccc(Br)cc2)CC1,0.0,-3.3,0.2&1.0,0.7&34.2,1.9,1.1%
CCOC(=O)C1CCCN(C(=O)c2cc(-c3cccs3)oc2C)CC1 (stereo unspecified),-4.2,-3.6,-0.1,29.8,-6.9,-0.3%
COc1ccc(C(=O)N(NC(=O)Oc2ccccc2)C(C)(C)C)cc1,-9.6,-5.9,-0.6,11.9,1.9,-1.9%
CC(C)Oc1ccc(C(=O)Nc2ccc(Cl)c(S(=O)(=O)Nc3ccc(Cl)cc3)c2)cc1,-7.3,2.6,0.5,-3.3,-5.3,?
O=C(NCC(=O)N(Cc1ccco1)C(C(=O)NC1CCCC1)c1cccnc1)c1ccco1 (stereo unspecified),11.6,-10.5,1.1,0.4,-8.3,2.9%
COc1ccc(-c2nc(CS(=O)CC(=O)NC3CCC(C)CC3)c(C)o2)cc1OC (stereo unspecified),-5.4,-0.7,1.3,23.7,-0.3,-0.6%

# Screens from PubChem.
